Source: PubChem BioAssay (several laboratories)
BJeLR lethal = BJeLR cell viability loss. inhibition, % (concentration not given with the values). 0.17% of 300,000 active. BJeLR (HRASV12) viability, CellTiter-Glo ATP luminescence, 48 h; reference of the scale not given here;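 active = replicate mean above 50%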;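 also: 50 nL library stock added to about 25 µL; numbers are from one replicate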
Bead autofluor = flagged as autofluorescent in microsphere protease counterscreen | compound autofluorescence counterscreen, microsphere flow cytometry; stronger effect = higher value | fluorescence intensity (no concentration beside the values) | 3.1% of 360,000 active | AID 624483;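 active = at least 3 SD above the mean of all compounds, about 16000 in these data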;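 also: 100 nL of 1 mM stock went into each well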
Mtb hypoxia rep = Mtb hypoxia fluorescent reporter inhibition. M. tuberculosis hypoxia-regulated fluorescent reporter, fluorescence. fluorescence inhibition, % (concentration not given with the values). 0.1% of 300,000 active;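 active = 35 to 45% if threefold the growth effect, above 45% if 1.5-fold the growth effect; inactive = the rest, general growth blockers included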;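 also: wells of about 50 µL received 100 nL stock; 0% = vehicle wells and 100% = reference inhibitor wells; whole bacteria with a GFP reporter of the hypoxia response; strong numbers were not always called active; many hits fall short of the cut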
ugtP null kill = kills S. aureus RN4220 lacking UgtP. 0.54% of 330,000 active. AID 1259309. growth inhibition, % (no concentration beside the values). S. aureus RN4220 ugtP deletion, OD600 growth, 16 h; some inactives read as strong as hits;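 active = z-score under -3 and OD600 up to 0.15 on both plates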;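 also: plate controls were untreated wells for no effect and antibiotic for full effect; wells of about 80 µL received 100 nL stock; the first replicate is given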
PrP UTR inh = suppresses PrP 5' UTR mRNA reporter expression; cell-based PrP 5' UTR mRNA reporter, plate reader; AID 488862; inhibition, % (concentration not given with the values); 0.35% of 340,000 active;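 active = every replicate at 50% or more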;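 also: 0 = median of the neutral control wells; tested in H4 reporter cells; numbers are from one replicate; inactives centre near -14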
RN4220 kill = S. aureus RN4220 growth inhibition; OD600, 16 h; inhibition, % (no concentration beside the values); 0.33% of 330,000 active;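 active = z-score of -3 or lower and OD600 up to 0.18 on both plates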;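 also: plate controls were untreated cells for no effect and reference antibiotic for full effect; stock transfer was 100 nL into about 80 µL; one replicate is shown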
Mtb hypoxia rep growth = second read-out of Mtb hypoxia rep, no call of its own (marks repeat the call); growth inhibition, %; measured here: M. tuberculosis growth (absorbance);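 0% = vehicle and 100% = reference antibiotic; read after six days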
* = called active by the depositor.

How did C#CCOCCOCCOCCNc1nc(N2CCN(C(=O)Cn3cc(CCCCN)nn3)CC2)nc(N2CCN(C(=O)Cn3cc(CC(C)O)nn3)CC2)n1 (configuration not stated) do in these assays?
BJeLR lethal: -7; Bead autofluor: 4100; Mtb hypoxia rep: 17; ugtP null kill: -1; PrP UTR inh: -2; RN4220 kill: 9.1; Mtb hypoxia rep growth: 6

How did COc1ccc(-c2nc(CS(=O)CC(=O)NC3CCCCC3C)c(C)o2)cc1 (configuration not stated) do in these assays?
BJeLR lethal: 0; Bead autofluor: 5393; Mtb hypoxia rep: -1; ugtP null kill: 8; PrP UTR inh: -20; RN4220 kill: 0.8; Mtb hypoxia rep growth: 9

Results for CCCOc1ccc(-c2nn(-c3ccccc3)cc2/C=C2\SC(N)=NC2=O)cc1 ?
BJeLR lethal: 4; Bead autofluor: 2145; PrP UTR inh: -22

Results for O=C(CCC(=O)N1CCSc2ccccc21)Nc1cccc(F)c1 ?
BJeLR lethal: 9; Bead autofluor: 4380; Mtb hypoxia rep: 3; ugtP null kill: -7; PrP UTR inh: -6; RN4220 kill: 3.4; Mtb hypoxia rep growth: -2

What do the screens show for `Cc1ccc(Nc2nc(N)c3ccccc3n2)cc1C`?
BJeLR lethal: 16; Bead autofluor: 4922; Mtb hypoxia rep: -13; ugtP null kill: -9; PrP UTR inh: 17; RN4220 kill: -1.9; Mtb hypoxia rep growth: 5

What do the screens show for `O=C(OCc1cccc(F)c1)c1cc2ccccc2cc1O`?
BJeLR lethal: -5; Bead autofluor: 3845; Mtb hypoxia rep: -2; ugtP null kill: 42; PrP UTR inh: -13; RN4220 kill: 3.6; Mtb hypoxia rep growth: 5

How did CCCCCC(=O)Nc1cccc(C2=NOC3(C2)C[C@@H](C(N)=O)N(C(=O)CC(c2ccccc2)c2ccccc2)C3)c1 (some centres not stated) do in these assays?
BJeLR lethal: -12; Bead autofluor: 4159; PrP UTR inh: -6

What do the screens show for `COc1cc(-n2cnnn2)ccc1S(=O)(=O)N1CCOCC1`?
BJeLR lethal: -2; Bead autofluor: 22844*; Mtb hypoxia rep: 0; ugtP null kill: -2; PrP UTR inh: 1; RN4220 kill: 0.2; Mtb hypoxia rep growth: 5

How did COc1ccccc1/C=N/NC(=O)c1nnn(-c2nonc2N)c1-c1ccccc1 do in these assays?
BJeLR lethal: 1; Bead autofluor: 5543; PrP UTR inh: -10

Results for COc1ccc(N2CCN(C(=O)CCNS(=O)(=O)c3ccc(C)cc3)CC2)cc1 ?
BJeLR lethal: 5; Bead autofluor: 5486; Mtb hypoxia rep: -2; ugtP null kill: -5; PrP UTR inh: -14; RN4220 kill: -2.6; Mtb hypoxia rep growth: 4

How did O=C(N/N=C/c1c(O)ccc2ccccc12)c1cccc(C(F)(F)F)c1 do in these assays?
BJeLR lethal: 40; Bead autofluor: 2696; PrP UTR inh: 36

What do the screens show for `CCOC(=O)C1CCN(C(=O)CSc2nc3ncccc3[nH]2)CC1`?
BJeLR lethal: 9; Bead autofluor: 5275; Mtb hypoxia rep: 3; ugtP null kill: 4; PrP UTR inh: -9; RN4220 kill: 0.9; Mtb hypoxia rep growth: 14

How did CCOC(=O)c1ccccc1NC(=O)CN1C(=O)NC(C)(CCc2ccccc2)C1=O (configuration not stated) do in these assays?
BJeLR lethal: 10; Bead autofluor: 5752; Mtb hypoxia rep: 6; ugtP null kill: 1; PrP UTR inh: -28; RN4220 kill: -0.4; Mtb hypoxia rep growth: 1

Results for CSCC[C@H](NC(=O)c1ccc(Cl)c([N+](=O)[O-])c1)c1nc2ccccc2[nH]1 ?
BJeLR lethal: 9; Bead autofluor: 8121; Mtb hypoxia rep: 7; ugtP null kill: -4; PrP UTR inh: -6; RN4220 kill: 4.0; Mtb hypoxia rep growth: 6

How did CC(=O)N1CCC(=NNc2ccnc3cc(Cl)ccc23)CC1 do in these assays?
BJeLR lethal: -6; Bead autofluor: 2196; Mtb hypoxia rep: -16; ugtP null kill: 3; PrP UTR inh: -14; RN4220 kill: -1.5; Mtb hypoxia rep growth: 2

How did N#C/C(=C\c1ccc(C#N)cc1)C(=O)N1CCCC1 do in these assays?
BJeLR lethal: 9; Bead autofluor: 4806; Mtb hypoxia rep: -2; ugtP null kill: 10; PrP UTR inh: -6; RN4220 kill: 15; Mtb hypoxia rep growth: -5

An excerpt from above in order of SMILES length, low to high:
What do the screens show for `Cc1ccc(Nc2nc(N)c3ccccc3n2)cc1C`?
BJeLR lethal: 16; Bead autofluor: 4922; Mtb hypoxia rep: -13; ugtP null kill: -9; PrP UTR inh: 17; RN4220 kill: -1.9; Mtb hypoxia rep growth: 5

How did N#C/C(=C\c1ccc(C#N)cc1)C(=O)N1CCCC1 do in these assays?
BJeLR lethal: 9; Bead autofluor: 4806; Mtb hypoxia rep: -2; ugtP null kill: 10; PrP UTR inh: -6; RN4220 kill: 15; Mtb hypoxia rep growth: -5

Results for O=C(CCC(=O)N1CCSc2ccccc21)Nc1cccc(F)c1 ?
BJeLR lethal: 9; Bead autofluor: 4380; Mtb hypoxia rep: 3; ugtP null kill: -7; PrP UTR inh: -6; RN4220 kill: 3.4; Mtb hypoxia rep growth: -2

What do the screens show for `CCOC(=O)C1CCN(C(=O)CSc2nc3ncccc3[nH]2)CC1`?
BJeLR lethal: 9; Bead autofluor: 5275; Mtb hypoxia rep: 3; ugtP null kill: 4; PrP UTR inh: -9; RN4220 kill: 0.9; Mtb hypoxia rep growth: 14

How did O=C(N/N=C/c1c(O)ccc2ccccc12)c1cccc(C(F)(F)F)c1 do in these assays?
BJeLR lethal: 40; Bead autofluor: 2696; PrP UTR inh: 36

How did COc1ccc(-c2nc(CS(=O)CC(=O)NC3CCCCC3C)c(C)o2)cc1 (configuration not stated) do in these assays?
BJeLR lethal: 0; Bead autofluor: 5393; Mtb hypoxia rep: -1; ugtP null kill: 8; PrP UTR inh: -20; RN4220 kill: 0.8; Mtb hypoxia rep growth: 9

Results for CCCOc1ccc(-c2nn(-c3ccccc3)cc2/C=C2\SC(N)=NC2=O)cc1 ?
BJeLR lethal: 4; Bead autofluor: 2145; PrP UTR inh: -22

How did CCCCCC(=O)Nc1cccc(C2=NOC3(C2)C[C@@H](C(N)=O)N(C(=O)CC(c2ccccc2)c2ccccc2)C3)c1 (some centres not stated) do in these assays?
BJeLR lethal: -12; Bead autofluor: 4159; PrP UTR inh: -6
